# NPYLR7 agonist = mosquito NPYLR7 agonism; HEK293T NPYLR7/Galpha15, GCaMP6s calcium fluorescence; activation, % at 10 µM; 270,000 tested, 0.15% active; AID 1259423; in the data active = activation above about 40%;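 also: 0% = vehicle and 100% = reference agonist at the receptor; some compounds past the cut are filed as inactive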
# NPYLR7 agonist max-min = also measured in NPYLR7 agonist; calls as there; activation, %; measured here: Max-Min RFU normalised activation; some inactives read as strong as hits;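 span of the calcium signal over five minutes; 0% = vehicle and 100% = native peptide agonist; compound fluorescence can raise it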
# Starred values were filed as active, the others as inactive; & = joins results of further samples. This is a subset, so the mix of outcomes need not match the whole.
SMILES,NPYLR7 agonist,NPYLR7 agonist max-min
Cc1c(C(=O)NCC2COC(C)(C)O2)cnc2c(-c3ccc4c(c3)OCO4)cnn12 (centres undefined),-3,9
CC1CNC(=O)CCN1C(=O)c1ccc(CSc2ncccn2)o1 (centres undefined),11,-5
Cc1ccc(F)cc1CC(=O)N(C)CCc1scnc1C,-1,-2
O=C1NCCN(Cc2cccc(F)c2)C1CC(=O)N1CC(O)C1 (centres undefined),1,-4
Cc1nnc(Sc2nc(CN3CCOCC3)nc3sc(C)c(C)c23)s1,3,5
c1cc(C2CCN(Cc3cc4n(n3)CCNC4)CC2)ccn1,7,4
Cc1cc(Cl)ccc1N1CCN(C(=O)c2cccc(F)c2)C(C)C1=O (centres undefined),1,8
COCCNC(=O)c1c(NC(=O)c2ccccc2[N+](=O)[O-])sc2c1CCCC2,-2,0
COCCCN(C(=O)c1cccs1)c1c(N)n(CC(C)C)c(=O)[nH]c1=O,8,3
Cn1ccnc1CN1CCNC(C(=O)O)C1 (centres undefined),4,-4
Cc1cc(C)n(CC(C)CNC(=O)c2ccc(Cl)cc2F)n1 (centres undefined),5,4
CC(C(=O)Nc1nncs1)N1C(=O)C2C3C=CC(C3)C2C1=O (centres undefined),2,-1
O=C(NNS(=O)(=O)c1ccc2c(c1)OCCO2)c1cc2c(s1)CCCCC2,4,2
Cc1ccc(-n2ncc(C(=O)N3CCC(C(N)=O)CC3)c2C(F)(F)F)cc1,2,0
CCc1nc2ccc(C(=O)N(C)Cc3ccco3)cn2c1N(CC)C(C)=O,-4,-11
CN1CCN(S(=O)(=O)c2ccc(SCCOc3ccccc3Cl)nc2)CC1,4,0
Cc1csc(=O)n1CCC(=O)Nc1ccc(S(=O)(=O)N(C)C(C)C)cc1,0,-1
COC(=O)N(C)CCCC(=O)Nc1n[nH]c(-c2ccncc2)c1C,16,16
Cc1ccnc(SCc2cc(=O)c(OC(=O)c3cc(Cl)ccc3[N+](=O)[O-])co2)n1,-7,-7
Cc1ncc(CN2CCCC(C(=O)Nc3ccc(-c4cscn4)cc3)C2)s1 (centres undefined),4&12,1&5

# Exported with values under each structure: three of the compounds above
# Screens in order – NPYLR7 agonist	NPYLR7 agonist max-min
> COCCCN(C(=O)c1cccs1)c1c(N)n(CC(C)C)c(=O)[nH]c1=O
→ 8	3
> Cn1ccnc1CN1CCNC(C(=O)O)C1 (centres undefined)
→ 4	-4
> Cc1cc(C)n(CC(C)CNC(=O)c2ccc(Cl)cc2F)n1 (centres undefined)
→ 5	4

# Continuation.
SMILES,NPYLR7 agonist,NPYLR7 agonist max-min
Cc1c(C(=O)NCc2cccc(C(F)(F)F)c2)sc(=O)n1CCOc1ccc(F)cc1,1,-1
O=C1C2CCCN2C(c2cccc(F)c2)N1c1nccs1 (centres undefined),3,-1
CCCCCCCC(=O)Nc1c(-c2ccccc2OC)nc2cc(C)ccn12,-7,-2
N#CCc1n[nH]c(=O)c2ccccc12,-2,-4
CCCCCN(Cc1nc(C(=O)OC)cs1)C(=O)Nc1ccc(C)c(Cl)c1,-3,-1
Cn1c(SCC(=O)NNC2=Nc3ccccc3CC2)nc2ccccc21,-4,-7
O=C(NCCCn1nnc2ccccc21)c1ccc2nc(C3CCCCC3)oc2c1,-5,-7
Cc1c(-c2ccccc2)oc2c(C(=O)N3CCCN(CC(=O)NC(C)(C)C)CC3)cccc2c1=O,1,-1
COc1ccc(-c2csc(NC(=O)CC(NC(C)=O)c3cccs3)n2)cc1Br (centres undefined),0,-1
CCn1c(=O)n(CC(=O)NC2CCCc3[nH]c(=O)c(C(N)=O)cc32)c2ccccc21 (centres undefined),1,-3
Cc1ccc(C(=O)c2ccccc2C(=O)Nc2cccnc2)cc1C,0,-1
Cc1cc(C)cc(OCC(=O)OCC(=O)N(C)c2ccccc2)c1,-1,-1
Cc1ccc(-c2c(C)sc3nc(CN(C)C(C)c4ccccc4)[nH]c(=O)c23)cc1 (centres undefined),-6,-7
FC(F)(F)C1CCCN(c2nsc3ccccc23)C1 (centres undefined),10,7
COCCCN1C(=O)CC(Sc2ncccc2C(=O)O)C1=O (centres undefined),7,6
CCc1ccc(-c2nc(C)c(C(=O)Nc3ccc(OC)nc3)s2)cc1,12,11
O=C(c1cccc(F)c1)N1CCC2(CC1)OCC(C(=O)N1CCCC1)N2C(=O)c1ccccc1 (centres undefined),1,16
Cc1ccc(C)c(-c2[nH]ncc2CN(C)Cc2ncc[nH]2)c1,2,-3
COc1ccccc1CN1CCCn2cccc2C1c1cc(C)ccc1C (centres undefined),-2,-2
CCCOc1ccc(Cc2nn[nH]n2)cc1,7,6
O=C(NNS(=O)(=O)c1ccc(Br)cc1)c1ccccc1F,3,11
COc1nc2ccccc2cc1-c1nc(C)ncc1C,0,-3
c1ccc2nc3c(nc2c1)CCc1nonc1-3,-13,-21
Cc1cnccc1NS(=O)(=O)c1cccc(Cl)c1C#N,1,9
CC1CCCN(C(=O)C2(c3cccc(Cl)c3)CC2)CC1 (centres undefined),10,6
CCC(=O)Nc1cc(C)nn1-c1nc(-c2ccc(C)cc2)cs1,-10,-14
Nc1nonc1-c1noc(COc2ccc(F)cc2)n1,0,-2
C=CCN(C(=O)CCc1c(C)nn(C)c1C)C1CCS(=O)(=O)C1 (centres undefined),-4,-5
Cc1nn(Cc2ccc(C(C)(C)C)cc2)c(C)c1S(=O)(=O)N(C)C,7,3
C=c1cc(C)n(CC(=O)Nc2ccc(OC)c(Cl)c2)c(=O)c1=C1N=C(c2ccc(Cl)cc2)NO1,9,-4
CCNC(=O)CCCC(=O)NCc1sccc1Br,-1,20
COc1ccc(-c2ccc(CCC(=O)NCc3cc(F)ccc3F)n2-c2ccc(SC)cc2)cc1,-1,-2
O=C(CCc1cnccn1)N1CCc2[nH]nc(-c3ccccc3)c2C1,11,2
CCOc1c(C)cnc2c1c(=O)n(CC(=O)N(CC)CC)c(=O)n2C,1,-1
O=c1cc(CN2CC[C@H](CO)[C@@H](O)C2)[nH]c2c(Cl)cccc12,6,5
O=C(c1cn[nH]n1)N1CCCC(COc2cccc(F)c2)C1 (centres undefined),1,0
O=C(CSc1ccc(-c2ccncc2)nn1)NC1CCCCC1,11,-6
COc1cccc(CC(=O)NC2CCCC(C(F)(F)F)C2)c1 (centres undefined),1,0
O=C(c1cnn(-c2ccccc2)n1)N1CCCC(COCc2ccccc2)C1 (centres undefined),97*,93*
CC1(C(=O)Nc2ccc3c(c2)OCCO3)CCN1Cc1csc2ccccc12 (centres undefined),-5,-4
COc1ccccc1Oc1c(CN(CC(O)Cc2ccccc2)C(C)C)c(C)nn1-c1ccccc1 (centres undefined),10,14
Clc1ccc(C2(NCc3noc(C4CC4)n3)CCCC2)cc1,2,0
Fc1ccc(-c2csc3ncnc(Sc4nnc(C5CC5)o4)c23)cc1,6,7
C=C(Br)Cn1c(C2CC(=O)N(c3ccc(C)cc3)C2)nc2ccccc21 (centres undefined),-1,4
CN(C)c1ccc(N=Cc2cc([N+](=O)[O-])ccc2OC(F)F)cc1,2,1
O=C(c1ccc([N+](=O)[O-])o1)N(CCCN1CCOCC1)c1nc2c(Cl)cccc2s1,-1,-3
Cc1nnc(-c2cccc(C#N)c2)n1C1CCN(C(C)C)C1=O (centres undefined),2,0
COc1cccc(CC2(CO)CCCN(Cc3cn[nH]c3-c3cc(C)ccc3C)C2)c1 (centres undefined),3&-9,-1&-14
Cc1cnc(NC(=O)/C=C/c2ccccc2C#N)s1,2,6
CCn1cc(-c2nnc(SCC(=O)O)n2C2CC2)cn1,2,2
CC(=O)Nc1ccc(NC(=O)C2(C)CCN2Cc2cccn2C)cc1 (centres undefined),3,-2
COc1cc(OC)cc(C(=O)N2CCCC(OCc3cccc(Cl)c3)C2)c1 (centres undefined),-24,-17
Clc1cc(N=Cc2cccnc2)ccc1N=Cc1cccnc1,17,13
CN(C)C1CCCN(C(=O)CCc2ccccc2Cl)CC1 (centres undefined),13,12
CC(C)CC(C)NC(=O)c1ccc(NC(C)C)nc1 (centres undefined),-19,-23
CC(Oc1ccc2c(c1)OCO2)c1nc(CC2CCN(C)CC2)no1 (centres undefined),9,3
Cc1cccc(SC2CCN(C(=O)c3ccc4nc(C5CC5)oc4c3)CC2)c1,4,0
CSc1ncc(CN2CCN(Cc3ccsc3)C(CCO)C2)cn1 (centres undefined),12&12,2&7
C=c1oc(C)cc1=C1NN=C(CCC(=O)NC2c3ccccc3-c3ccccc32)O1,20,10
COc1ccc(S(=O)(=O)n2cc(-c3ccc(C)cc3)c(N)n2)c(OC)c1,-1,-2
# Further results:
SMILES,NPYLR7 agonist,NPYLR7 agonist max-min
O=C(NCc1nncn1C1CCCCC1)c1cccc2ccnn12,6,5
Cc1cc(NC(=O)CNC(=O)c2ccccc2Br)no1,-5,-7
OC[C@@H]1CN(Cc2ccccc2)C[C@H](n2cnc3c(NC4CCC4)ncnc32)O1,5,3
CCCc1c(C(=O)N2CCOCC2)cnn1-c1ccccc1C,17,25
CC(C)CN1C(=S)N(Cc2ccc(N(C)C)cc2)[C@H]2[C@H]3OC(=O)[C@H](C[C@H]3O)[C@H]21,-7,-12
OCC1(CC2CCCCO2)CCN(Cc2ccc(Oc3ncccn3)cc2)CC1 (centres undefined),12,4
COc1ccc(N2CCN(c3cc(C(=O)NC(Cc4ccccc4)c4ccccc4)c4ccccc4n3)CC2)cc1 (centres undefined),5,0
O=S(=O)(Cc1cccnc1)c1ccccc1,3,0
CC(CN=c1c([N+](=O)[O-])nn(-c2ccc(Cl)cc2)n1O)c1ccccc1 (centres undefined),2,1
CNC(=O)C1CCN(c2cc(C)c3cc4c(cc3n2)CCC4)C1 (centres undefined),-1,-2
CCOC(=O)C1(CCOc2ccccc2)CCN(Cc2cccn2-c2ccccn2)CC1,-7,-9
COc1ccc2[nH]c3c(c2c1)CCN(C(=O)c1cccc(I)c1)C3c1ccc(OCc2ccccc2)cc1 (centres undefined),9,-4
COc1cccc(CCNC(=O)CN2C(=O)[C@H]3C[C@H](O)CN3C(=O)c3ccccc32)c1,-1,9
COc1cccc(NC(=O)CCC2CCN(S(=O)(=O)c3sccc3C)CC2)c1,4,1
CN(C/C=C/c1ccccc1)C1CCS(=O)(=O)CC1,3,1
Nc1ccc(Oc2cc(N)cc(Oc3ccccc3)c2)cc1,74*,75*
COc1ccccc1N1CCN(C2CCCN(Cc3nc(C(C)C)cs3)C2)CC1 (centres undefined),18,8
CN(C)S(=O)(=O)CCNC1CCN(c2ccc3c(c2)OCO3)CC1,8,7
CCc1c(C(=O)NCc2ccc(N(C)C)c(F)c2)cnn1C,7,6
COc1ccc2oc(=O)c(-c3nnc(Nc4ccccc4Cl)s3)cc2c1,-1,2
Cc1ccc(SC(C)C(=O)N(C)Cc2ncc[nH]2)cc1 (centres undefined),-1,-4
CCC(=O)C(C)C(c1ccccc1)N(C)C(=O)c1ccccc1 (centres undefined),8,7
CC(=O)Nc1ccc(CC(=O)N(C)Cc2ccc(Cl)s2)cc1,-9,-15
CCOC(=O)c1c(C)[nH]c(C(=O)OCC(=O)N(C)C(C)C)c1C,5,3
COC(=O)C(c1ccccc1F)C1C=CC(NC(=O)c2cccc(SC(F)F)c2)C1 (centres undefined),4,0
COc1ccc(OC)c(C#N)c1,5,5
COc1cc(Cl)c(NC(=O)N(C)C2CCC2)cc1OC,5,2
C=C(C)CN(C)c1nc(C)nc2sccc12,2,1
COC(=O)CC1c2cccnc2C(=O)N1CC(=O)OCc1ccccc1 (centres undefined),1,6
Cc1cnc(CNS(=O)(=O)c2cccc(Cl)c2F)o1,0,0
Cn1ccnc1C(NC(=O)Nc1ccc2c(c1)OCO2)c1ccccc1F (centres undefined),6,5
C=C(C)C(O)(C(=C)C)c1ccc(CN(CCOC)Cc2ccccc2)o1,-10,-5
O=C(CNc1ccc([N+](=O)[O-])cc1Cl)NC1CC1,-7,8

# Ordered by length of the SMILES (ascending): 20 of the compounds above
SMILES,NPYLR7 agonist,NPYLR7 agonist max-min
O=S(=O)(Cc1cccnc1)c1ccccc1,3,0
C=C(C)CN(C)c1nc(C)nc2sccc12,2,1
Nc1nonc1-c1noc(COc2ccc(F)cc2)n1,0,-2
Cc1cnc(CNS(=O)(=O)c2cccc(Cl)c2F)o1,0,0
CCCc1c(C(=O)N2CCOCC2)cnn1-c1ccccc1C,17,25
Cc1ccc(SC(C)C(=O)N(C)Cc2ncc[nH]2)cc1 (centres undefined),-1,-4
Clc1ccc(C2(NCc3noc(C4CC4)n3)CCCC2)cc1,2,0
CCC(=O)Nc1cc(C)nn1-c1nc(-c2ccc(C)cc2)cs1,-10,-14
COC(=O)CC1c2cccnc2C(=O)N1CC(=O)OCc1ccccc1 (centres undefined),1,6
CCCCCCCC(=O)Nc1c(-c2ccccc2OC)nc2cc(C)ccn12,-7,-2
COc1ccc2oc(=O)c(-c3nnc(Nc4ccccc4Cl)s3)cc2c1,-1,2
Cc1ncc(CN2CCCC(C(=O)Nc3ccc(-c4cscn4)cc3)C2)s1 (centres undefined),4&12,1&5
COc1ccc(-c2csc(NC(=O)CC(NC(C)=O)c3cccs3)n2)cc1Br (centres undefined),0,-1
COc1ccc(S(=O)(=O)n2cc(-c3ccc(C)cc3)c(N)n2)c(OC)c1,-1,-2
Cc1ccc(-n2ncc(C(=O)N3CCC(C(N)=O)CC3)c2C(F)(F)F)cc1,2,0
C=c1oc(C)cc1=C1NN=C(CCC(=O)NC2c3ccccc3-c3ccccc32)O1,20,10
CC(CN=c1c([N+](=O)[O-])nn(-c2ccc(Cl)cc2)n1O)c1ccccc1 (centres undefined),2,1
COc1ccccc1Oc1c(CN(CC(O)Cc2ccccc2)C(C)C)c(C)nn1-c1ccccc1 (centres undefined),10,14
COc1cccc(CCNC(=O)CN2C(=O)[C@H]3C[C@H](O)CN3C(=O)c3ccccc32)c1,-1,9
COc1ccc2[nH]c3c(c2c1)CCN(C(=O)c1cccc(I)c1)C3c1ccc(OCc2ccccc2)cc1 (centres undefined),9,-4
